VDR inhibitor: Inhibitors of the vitamin D receptor (VDR): qHTS. Vitamin D3 receptor (Homo sapiens), P11473. VDR-SRC2-3 peptide fluorescence polarization, 2 h. Potency, µM, for the others: max response, negative = inhibition, actives largely listed as inhibitors. actives 0.93% (n = 400,000). AID 504847, 2011; active = well fitted inhibition curve with a large enough effect; inconclusive = small, poorly fitted or top-dose-only effect, or another doubt; inactive = no such curve, though single readings can be large or run the other way; note: series mostly up to about 120 µM
Target sequence (P11473 whole entry, looked up): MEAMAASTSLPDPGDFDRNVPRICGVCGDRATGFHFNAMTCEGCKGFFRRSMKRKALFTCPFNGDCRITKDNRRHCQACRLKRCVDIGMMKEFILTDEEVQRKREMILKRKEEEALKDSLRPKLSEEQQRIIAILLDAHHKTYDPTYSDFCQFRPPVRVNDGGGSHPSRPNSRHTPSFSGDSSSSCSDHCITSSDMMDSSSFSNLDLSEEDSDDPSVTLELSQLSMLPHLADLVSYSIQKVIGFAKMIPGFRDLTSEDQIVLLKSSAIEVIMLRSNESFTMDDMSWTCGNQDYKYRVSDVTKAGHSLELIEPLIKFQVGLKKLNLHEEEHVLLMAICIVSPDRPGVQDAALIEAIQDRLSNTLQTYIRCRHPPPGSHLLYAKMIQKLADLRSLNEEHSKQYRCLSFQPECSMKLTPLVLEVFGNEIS
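After 23 nl compound addition and a short centrifugation, plates sat for 2 hours at ambient temperature; polarization of fluorescence then indicated loss of VDR binding to peptide SRC2-3.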
* hit, by the source's call; ? = inconclusive; & = joins results of further samples; [ ] = another dose, or the depositor's remark. % is set by controls: 0 for no effect and ±100 for the full control effect; potency is the fitted concentration of half-maximal effect. These rows are one share of the data (hit frequency here may not be typical).

| Molecule | VDR inhibitor |
| --- | --- |
| COc1cc(NC(=O)CC2C(=O)N(c3cccc(C)c3)C(=O)N2Cc2ccco2)cc(OC)c1 (configuration not stated) | 7% |
| CCCCC(=O)NC(Nc1ccc(C)cn1)(C(=O)OCC)C(F)(F)F (configuration not stated) | -8% |
| COc1ccc(C(c2nnnn2C2CCCCC2)N2CCN(c3ccccc3F)CC2)cc1 (configuration not stated) | 11% |
| CC(=O)Nc1ccc(S(=O)(=O)Nc2nc3ccccc3nc2Sc2nncn2C)cc1 | -11% |
| Cc1ccc(NC(=O)CN2CCc3ccccc3C2)cc1S(=O)(=O)N1CCOCC1 | -24% |
| Cc1ccc(CN(C(=O)c2cc3ccccc3oc2=O)C2CCS(=O)(=O)C2)cc1 (configuration not stated) | -11% |
| Cc1cc(=O)oc(C)c1C(=O)NNC(=O)C1(C)CC1Br (configuration not stated) | 1% |
| COc1ccccc1C(=O)NC(=S)Nc1cc(C(=O)O)ccc1C | -27% |
| CCN(CC(=O)Nc1c(F)cccc1F)C(=O)CN1C(=O)NC2(CCCC2)C1=O | 8% |
| CN1CCN(CCNC(=O)Nc2ccccc2C(F)(F)F)CC1 | -1% |
| Cc1cc(C)c2c(N)c(S(=O)(=O)Cc3ccccc3)sc2n1 | -4% |
| COc1cccc(S(=O)(=O)NCc2ccc(C(=O)Nc3ccc(Cl)cc3)cc2)c1 | 2% |
| CCOC(=O)c1cnn(-c2nc(SC)nc3sc4c(c23)CCCC4)c1N | 3% |
| CC1Cc2ccccc2N1C1=CC(=O)CC(C)(C)C1 (configuration not stated) | 2% |
| Cn1nc(-c2ccccc2)c2nc3ccccc3nc21 | -1% |
| O=C(O)C(O)[C@@](O)(Cc1ccc(O)cc1)C(=O)O (some centres not stated) | -2% |
| CCSC(C)CC1C/C(=N/O)c2c(C)noc2C1 (configuration not stated) | -5% |
| Cc1ccc(N(CCCCN2C(=O)c3ccccc3C2=O)C(=O)c2ccc(Cl)s2)cc1 | -18% |
| CN1C(=O)/C(=C/c2cc(C(C)(C)C)c(O)c(C(C)(C)C)c2)NC1=S | -7% |
| CC(C)(C)c1ccc(S(=O)(=O)NCc2nc3cccnc3n2Cc2ccccc2Cl)cc1 | -6% |
| CCN(CCCNC(=O)c1nn(-c2ccc(OC)c(Cl)c2)c(=O)c2c1c1ccccc1n2C)c1ccccc1 | 11% |
| CN(C)S(=O)(=O)c1cccc(-c2nnc(SCc3cc(Cl)cc4c3OCOC4)n2N)c1 | ? |
| CCCn1nnc(NC(=S)NC(=O)Cc2ccccc2)n1 | -13% |
| CCCCCCCCCCCCCCCC(=O)OC(CC(=O)O)C[N+](C)(C)C (configuration not stated) | -9%&8% |
| O=c1[nH]nc(-c2ccc([N+](=O)[O-])o2)c(=O)[nH]1 | -16% |
| CCN(CC)CCNC(=O)Cn1cnc2sc(C)c(S(=O)(=O)N3CCN(c4ncccn4)CC3)c2c1=O | -1% |
| CCOC(=O)CN1C(=O)C2(OCCCO2)c2ccccc21 | 11% |
| COc1ccc2oc(C(=O)OCC(=O)N3CCCCC3C)c(C)c2c1 (configuration not stated) | -26% |
| C[n+]1ccc(/C=C/c2c[nH]c3ccc(F)cc23)cc1 | 10% |
| CCCN(CCC)CCCNC(=O)CS(=O)Cc1nc(-c2ccc(OC)c(OC)c2)oc1C (configuration not stated) | 15% |
| COc1ccc(N2CCN(C(CNC(=O)C(=O)NCCCn3ccnc3)c3ccco3)CC2)cc1 (configuration not stated) | -6% |
| O=C(c1cccc(Cl)c1)N1CCC(c2nc3ccccc3o2)CC1 | 21% |
| O=C1CCCC(=O)C1C(=O)C1CCN(S(=O)(=O)c2ccccc2)CC1 | 133%[activator] |
| CCCS(=O)(=O)N1CCCC(C(=O)c2ccccc2OC)C1 (configuration not stated) | -7% |
| Cc1cc(-c2ccccc2)nc2cc(C(=O)Nc3cc(C(F)(F)F)ccc3Cl)nn12 | ? |
| O=C(COc1ccc(Nc2ccccc2)cc1)Nc1ccncc1 | -12% |
| N#Cc1ccc(-c2ccc(Cl)cc2)nc1Oc1ccc(F)cc1 | 2% |
| COC(=O)Cn1nc(-c2ccccc2)c2cc(Cl)ccc21 | -27% |
| CCN(C(=O)CSc1nc(-c2ccccc2)no1)c1cccc(C)c1 | -10% |
| O=C(c1ccncc1)N1CCC2(CC1)CN(c1cccc(-c3ccccc3)c1)C2 | ? |
| CCOc1ncccc1C(=O)OCC(=O)c1ccc[nH]1 | 14% |
| CCC(C)N(C(=O)COC(=O)c1[nH]c(C)c(C(C)=O)c1C)C1CCS(=O)(=O)C1 (configuration not stated) | -7% |
| O=C(CN1C(=O)COc2ccc(S(=O)(=O)N3CCCC3)cc21)N1CCCC1 | -19% |
| CSC1=NCCN1C(=O)Cc1ccc(F)cc1 | 20% |
| O=C(OCc1nnc(-c2ccccc2)o1)C1CC(=O)N(c2ccccc2)C1 (configuration not stated) | -8% |
| CC(C)c1ccc2[nH]c3c(c2c1)[C@@H]1CCN2C(=O)CCC[C@H](C3)[C@H]12 | -26% |
| O=C(CCn1c(=O)oc2cc(Cl)ccc21)Nc1ccc(N2CCOCC2)cc1 | -3% |
| CC(=O)N1c2c(cc(Br)cc2S(=O)(=O)N2CCOCC2)CC1C (configuration not stated) | -9% |
| COc1ccc(CNC(=O)CCCN2C(=O)COc3ccc(C)cc32)cc1 | ? |
| O=C(Nc1nc2c(s1)CN(Cc1ccccc1)CC2)C1CCC1 | 5% |
| CCOC(=O)c1cn2nc(-c3ccc(OCC)cc3)cc2nc1C1CCN(C(=O)OC(C)(C)C)CC1 | -5% |
| Cc1c(OC(C)C(=O)NCc2ccccn2)ccc2c3c(c(=O)oc12)CCCC3 (configuration not stated) | 14% |
| COc1cc(C(=O)OCC(=O)Nc2cc(-c3cc(C)c(C)cc3C)nn2-c2ccccc2)cc(OC)c1OC | 9% |
| Nc1c(C(=O)NC2CCCC2)c2nc3ccccc3nc2n1N | -3% |
| CSCCC1Nc2ccc(S(=O)(=O)N3CCOCC3)cc2NC1=O (configuration not stated) | 11% |
| O=C(COC(=O)COc1cccc(C(F)(F)F)c1)NC1CCCC1 | -4% |
| O=c1c(O)c(-c2ccc3c(c2)OCO3)oc2ccccc12 | -12% |
| O=C(CCNS(=O)(=O)c1ccc2ccccc2c1)NCCOc1ccccc1 | -13% |
| Cc1ccc(C(=O)CSc2nc3ccccc3c(=O)[nH]2)cc1 | -10% |
| CC(C)(C)C(=O)NC(=S)Nc1sc2c(c1C(N)=O)CCC2 | 5% |

The final 2 entries of the part above open the next one:
canonical_smiles,VDR inhibitor
Cc1ccc(C(=O)CSc2nc3ccccc3c(=O)[nH]2)cc1,-10%
CC(C)(C)C(=O)NC(=S)Nc1sc2c(c1C(N)=O)CCC2,5%
O=C(CN1CCC(NC(=O)c2ccccc2F)CC1)NCc1ccc(F)cc1,15%
O=C(O)CCCCCCNS(=O)(=O)c1ccccc1,-7%
O=C(N/N=C/c1ccc[nH]1)c1ccccc1O,-4%
Cc1ccc(C(=O)NC2CCN(C(=O)NCc3ccccc3)CC2)cc1,12%
CN(CC(=O)Nc1ccccc1Cl)C(=O)c1cc(-c2cccs2)nn1-c1ccccc1,-7%
COc1ccc(-c2nc(CN3CCC(C(=O)N4CCOCC4)CC3)c(C)o2)cc1OC,0%
COC(=O)c1[nH]c2cc(C)ccc2c1NC(=O)CN1CCc2cc(OC)c(OC)cc2C1,0%
NC(=O)C1CCN(C(=O)CCn2c(=O)oc3ccccc32)CC1,-14%
CC(C)C[C@@H](NC(=O)[C@@H](Cc1ccccc1)NC(=O)c1cnccn1)B(O)O,14%
O=C(NCCCn1ccnc1)/C(=C\c1ccccc1F)NC(=O)c1ccccc1,6%
O=C(c1cnsn1)N1CCN(c2ccccc2)CC1,9%
Cc1ccc(-n2c(C)nc3c(cnn3-c3ccc(C)c(C)c3)c2=O)cc1C,11%
CCOC(=O)c1ccccc1NC(=O)CSc1ccc(-c2cccnc2)nn1,15%
Cc1ccc(C2C(C#N)=C(N)SC(N)=C2C#N)cc1,-20%
OCC[C@H]1C[C@@H](O)[C@H](O)[C@]2(OCc3ccccc32)O1,15%
CC(OC(=O)C1=COCCO1)C(=O)Nc1cc(S(=O)(=O)N2CCCCC2)ccc1Cl (configuration not stated),4%
CCc1ccccc1NC(=O)C1CCN(S(=O)(=O)c2ccc3c(c2)N(C(C)=O)CCO3)CC1,-4%
COc1ccc([N+](=O)[O-])cc1NC(=O)c1ccc(N(Cc2ccccc2C)S(C)(=O)=O)cc1,-3%
COc1ccccc1NC(=O)CCS(=O)(=O)c1cc2c3c(c1)CCN3C(=O)CC2,1%
CC(NC(=O)C(C)(C)C)C(c1cccs1)N1CCOCC1 (configuration not stated),10%
COc1ccc2c(c1)nc(CN1CCN(CCO)CC1)n2C,-25%
CC1CCCCC12NC(=O)N(CC(=O)N1CCN(S(=O)(=O)c3cccs3)CC1)C2=O (configuration not stated),2%
COc1ccccc1NC(=O)CCCc1nc(-c2ccc(OC)c(OC)c2)no1,8%
CC(=O)Nc1cccc(NC(=O)c2cc(Cl)ccc2Cl)c1,-2%
CN(C)S(=O)(=O)c1ccc2c(c1)C(=NO)c1cc(S(=O)(=O)N(C)C)ccc1-2,2%
CCOC(=O)N1CCC(NC(=O)C2=CCN(S(=O)(=O)c3ccc(F)cc3)CC2)CC1,3%
COc1cc2[nH]cc(C(=O)NCCc3ccccc3)c(=O)c2cc1OC,2%
COc1ccccc1NC(=S)NC(=O)C(C)C,-9%
O=C(Nc1cccc(S(=O)(=O)N2CCCC2)c1)c1cncc(Br)c1,5%
Cc1ccc(NS(=O)(=O)c2cc3[nH]c(=O)c(=O)[nH]c3cc2C)cc1N(C)C,2%
O=C(NCc1ccc(F)cc1)c1c2c(nc3ccccc13)C(=O)N(C1CCCCC1)C2,4%
O=C1c2ccccc2-c2nc3ccccc3n21,-4%&4%
COc1ccc(CCn2c(C)cc(C(=O)CSc3nnnn3C)c2C)cc1,18%
C/C(CC(=O)NCc1ccc(F)cc1)=N\NC(N)=S,-9%
Cc1nnc(SCc2cc(=O)n3[nH]cnc3n2)s1,-8%
COc1ccc(CC(=O)Nc2ccc(N3CCN(c4ccc(OC)cc4)CC3)c(C#N)c2)cc1,6%
Cc1ccc(-n2c(Cc3cccn3C)nnc2SCC(N)=O)cc1,17%
Cc1nnc(SCc2cccc([N+](=O)[O-])c2)s1,-1%
O=C(NCc1ccccc1)c1ccc(NC(=O)C2CCC2)cc1,4%
CCOC(=O)N1CCN(Cc2nc3ccc([N+](=O)[O-])cc3c(=O)n2-c2ccccc2F)CC1,-13%
CCS(=O)(=O)Nc1ccc(C(=O)CC2(O)C(=O)Nc3ccc(Br)cc32)cc1 (configuration not stated),-14%
CCOC(=O)c1cccnc1SCC(=O)N(C)c1ccccc1,-7%
O=C1Nc2ccccc2C1C(C[N+](=O)[O-])c1ccccn1 (configuration not stated),2%
Cc1ccccc1OCCC(=O)OCC(=O)Nc1ccc(C(N)=O)cc1,22%
O=C(Nc1cccc(C(F)(F)F)c1)c1cc(S(=O)(=O)N2CCCC2)c[nH]1,3%
CCOc1ccc(C(=O)C[n+]2ccc(C(=O)NCCO)cc2)cc1,1%
Cc1ccc(NC(=S)N(C)C(c2ccccc2)c2ccccc2)cc1C,-3%
Cc1ccc2[nH]c(C(=O)N3CCN(c4cccc(Cl)c4)CC3)cc2c1,-5%
COc1ccc(CC(=O)NCCCSc2ccccc2)cc1OC,-13%
Oc1ccccc1-c1nc2cnccn2c1Nc1ccc2c(c1)OCCO2,16%

Structures above that contain bromine, in the order listed:
canonical_smiles,VDR inhibitor
Cc1cc(=O)oc(C)c1C(=O)NNC(=O)C1(C)CC1Br (configuration not stated),1%
CC(=O)N1c2c(cc(Br)cc2S(=O)(=O)N2CCOCC2)CC1C (configuration not stated),-9%
O=C(Nc1cccc(S(=O)(=O)N2CCCC2)c1)c1cncc(Br)c1,5%
CCS(=O)(=O)Nc1ccc(C(=O)CC2(O)C(=O)Nc3ccc(Br)cc32)cc1 (configuration not stated),-14%

The results go on.
canonical_smiles,VDR inhibitor
Cc1ccccc1NC(=O)NCCc1c[nH]c2ccccc12,-10%&4%
Cc1cc2n(n1)C(c1cccs1)Nc1ccccc1-2 (configuration not stated),-8%
COC(=O)c1ccc(NC(=O)CSc2nc(C)cc(C)c2C(=O)Nc2ccccc2)cc1,10%
CC(=O)N1CCc2cc(S(=O)(=O)N3CCOCC3)ccc21,-11%
COc1ccc(C(=O)N2CCC3(CCCN(C(=O)Nc4cccc(C#N)c4)C3)CC2)cc1,1%
CC(=O)Nc1ccc(-c2nnc3n(CC(C)C)c(=O)c4ccccc4n23)cc1,5%
COc1ccc(S(=O)(=O)N(C)Cc2ccc3c(c2)OCCO3)cc1,-3%
COc1ccc(-c2csc(/C(C#N)=C\c3ccc(O)c([N+](=O)[O-])c3)n2)cc1OC,2%
CCN1C(=S)N[C@@H](c2cccc(F)c2)C(C(=O)OC)=C1C,-7%
O=C(/C=N/O)Nc1ccccc1C(=O)O,-11%
CC(C)Oc1ccc(C(=O)N(CN2CCCC2=O)c2ccc(F)cc2)cc1,4%
COc1ccc(C(=O)O)cc1NC(=S)NC(=O)c1ccc(-c2ccc(Cl)cc2)o1,-12%
CCN(C[C@H]1N[C@@](Cc2ccccc2)(C(=O)OC)[C@H]2C(=O)N(Cc3ccccc3)C(=O)[C@@H]12)S(=O)(=O)c1ccc(C)cc1,-12%

Arranged by molecular weight (falling): part of the list above
canonical_smiles,VDR inhibitor
COC(=O)c1ccc(NC(=O)CSc2nc(C)cc(C)c2C(=O)Nc2ccccc2)cc1,10%
COc1ccc(S(=O)(=O)N(C)Cc2ccc3c(c2)OCCO3)cc1,-3%
CCN1C(=S)N[C@@H](c2cccc(F)c2)C(C(=O)OC)=C1C,-7%
Cc1cc2n(n1)C(c1cccs1)Nc1ccccc1-2 (configuration not stated),-8%
O=C(/C=N/O)Nc1ccccc1C(=O)O,-11%
